Beta2AR agonist = human beta-2 adrenergic receptor agonism by FAP; 0.43% of 340,000 active; P07550; response, % (no concentration beside the values); Am2.2-beta2AR cells, FAP receptor internalization, flow cytometry; reference of the scale not given here;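 active = response above a set limit, near 3 SD of response in nonfluorescent compounds, cut at about 42% in these data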;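 note: stock transfer was 100 nL into about 11 µL; a reference agonist was the positive control; negative values mostly stem from fluorescent compounds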
Target sequence (P07550 whole entry, looked up): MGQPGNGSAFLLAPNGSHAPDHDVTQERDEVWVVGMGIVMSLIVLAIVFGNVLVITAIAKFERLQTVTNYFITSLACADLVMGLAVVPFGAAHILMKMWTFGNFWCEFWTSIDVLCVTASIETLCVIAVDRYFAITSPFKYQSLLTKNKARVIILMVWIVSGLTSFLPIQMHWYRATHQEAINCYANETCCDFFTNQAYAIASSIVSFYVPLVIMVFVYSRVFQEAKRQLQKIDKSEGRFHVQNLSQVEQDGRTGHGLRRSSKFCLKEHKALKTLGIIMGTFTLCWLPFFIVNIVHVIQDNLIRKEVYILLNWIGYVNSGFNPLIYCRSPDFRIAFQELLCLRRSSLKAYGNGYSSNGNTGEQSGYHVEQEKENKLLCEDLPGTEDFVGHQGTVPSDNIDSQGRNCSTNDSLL
ALR inh = blocks human ALR sulfhydryl oxidase activity; P55789; inhibition, % (no concentration beside the values); 3.8% of 290,000 active; purified ALR, DTT oxidation, H2O2 HRP-luminol luminescence;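 active = mean and each replicate at 75% or more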;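 note: stock transfer was 7.5 nL into about 7.5 µL; 0% = neutral wells and 100% = wells with inactivated enzyme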
Target sequence (P55789 whole entry, looked up): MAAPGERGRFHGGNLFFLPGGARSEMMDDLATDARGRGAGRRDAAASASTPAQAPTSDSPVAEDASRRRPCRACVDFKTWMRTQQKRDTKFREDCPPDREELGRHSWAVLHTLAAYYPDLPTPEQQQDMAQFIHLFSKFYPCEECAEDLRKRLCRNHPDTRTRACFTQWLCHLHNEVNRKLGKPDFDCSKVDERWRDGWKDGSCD
LANA-H2B inh = blocks KSHV LANA binding to histone H2A/H2B. Q9QR71. cell-free LANA-H2A/H2B peptide, fluorescence polarization. inhibition, % (test concentration not listed). 0.6% of 320,000 active. AID 2629; in the data active = inhibition mostly above about 10%, no sharp cut-off; inactive = mostly below about 6.7%;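 note: stock transfer was 7.5 nL into about 10 µL; 0% = median of vehicle wells and 100% = median of positive control wells; one replicate is shown; the record names a cut of 25% in any replicate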
E coli growth = E. coli growth inhibition; Escherichia coli growth, OD600, 23 h; hits give low values; OD600 absorbance (test concentration not listed); 0.21% of 330,000 active;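 active = OD600 absorbance below the run mean of sample wells minus 3.6 SD, in any replicate, cut at about 0.56 in these data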;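 note: stock transfer was 300 nL into about 60 µL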
FGF22 binding = binders of recombinant human FGF22 by thermal shift. Q9HCT0. SYPRO orange fluorescence; percent of sucrose octasulfate shift, DMSO zero. calls only at 9.99 µM. 1.5% of 340,000 active. AID 651658;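 active = melting point raised past a set limit in the mean and every replicate; three in four hits are not shown here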
UCH37 inh = blocks the human deubiquitinase UCH37 | Q9Y5K5 | purified proteasome/UCH37, Ub-AMC cleavage fluorescence | inhibition, % (no concentration beside the values) | 0.33% of 330,000 active;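 active = mean of two replicates above 20%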;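 note: 0% = compound-free wells with enzyme and 100% = wells lacking proteasome; stock transfer was 100 nL into about 20 µL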
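Signal – fluorescence, ex 355 nm, em 460 nm · System – Proteasome-bound UCH37 · Input – 0.15 nM proteasome as dispensed · Timing – 30 min preincubation with enzyme, 25 min cleavage at room temperature · Read-out basis – percent inhibition of cleavage signal versus uninhibited and no-proteasome wells · Medium – Tris-HCl pH 7.4 with ATP-MgCl2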
HNF4A DNA FP = change in binding of human HNF4 alpha to DNA | P41235 | HNF4a-FITC DNA binding, fluorescence polarization, 1 h | activity change, % at 10 µM | 0.3% of 360,000 active | AID 1224865; in the data active = activity change above about 30%, passing the limit was not always enough;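 note: controls were the assay level and a saturating level of protein; the project sought stronger binding though the title names inhibitors; some compounds called inactive have numbers as strong as hits; positive values seem to mean higher polarization but the record does not say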
Target sequence (P41235 whole entry, looked up): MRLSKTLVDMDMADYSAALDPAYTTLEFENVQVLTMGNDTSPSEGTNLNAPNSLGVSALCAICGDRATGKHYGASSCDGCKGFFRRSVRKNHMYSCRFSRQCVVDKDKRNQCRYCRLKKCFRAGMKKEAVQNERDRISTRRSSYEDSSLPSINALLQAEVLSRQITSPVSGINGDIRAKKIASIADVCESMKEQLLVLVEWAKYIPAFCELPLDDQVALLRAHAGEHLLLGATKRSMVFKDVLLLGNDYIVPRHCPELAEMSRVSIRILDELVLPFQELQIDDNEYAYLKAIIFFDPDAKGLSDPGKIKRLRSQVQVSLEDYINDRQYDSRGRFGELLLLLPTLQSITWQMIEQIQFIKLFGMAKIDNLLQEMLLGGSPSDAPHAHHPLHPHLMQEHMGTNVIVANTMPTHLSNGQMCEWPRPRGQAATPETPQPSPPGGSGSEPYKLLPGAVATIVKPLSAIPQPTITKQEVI
The depositor's hits bear a star.

Preview (two entries):
`CC(C)NC(=O)c1sc2nc3c(c(-c4cccs4)c2c1N)CN(C)CC3` gave Beta2AR agonist -4.4, ALR inh -59.4, LANA-H2B inh 3.9, UCH37 inh -2.3 and HNF4A DNA FP -4.2.
`CCOc1ccc(S(=O)(=O)NCCC(=O)OCN2C(=O)c3ccccc3C2=O)cc1` gave Beta2AR agonist 0.6, LANA-H2B inh 1.7, E coli growth 0.695, UCH37 inh 4.1 and HNF4A DNA FP 1.4.

The list itself, from the start:
`CC(C)NC(=O)c1sc2nc3c(c(-c4cccs4)c2c1N)CN(C)CC3` gave Beta2AR agonist -4.4, ALR inh -59.4, LANA-H2B inh 3.9, UCH37 inh -2.3 and HNF4A DNA FP -4.2.
`CCOc1ccc(S(=O)(=O)NCCC(=O)OCN2C(=O)c3ccccc3C2=O)cc1` gave Beta2AR agonist 0.6, LANA-H2B inh 1.7, E coli growth 0.695, UCH37 inh 4.1 and HNF4A DNA FP 1.4.
Screening CC(C)N(Cc1ccccc1)C(=O)c1cnc2n(c1=O)CCS2 returned Beta2AR agonist 12.0, ALR inh -2.4, LANA-H2B inh 2.1, E coli growth 0.725, FGF22 binding inactive, UCH37 inh -0.4 and HNF4A DNA FP 1.9.
CCOc1ccc(NC(=O)COC(=O)C2CCC(=O)N2)c([N+](=O)[O-])c1 (stereo unspecified) was read as Beta2AR agonist -4.9, E coli growth 0.62, UCH37 inh 3.7 and HNF4A DNA FP -3.0.
For O=C(NNC(=S)NC(=O)c1cccnc1)c1ccc(Cl)cc1 the results were Beta2AR agonist 2.6, ALR inh 65.6, LANA-H2B inh -0.3, E coli growth 0.529*, UCH37 inh 8.0 and HNF4A DNA FP 2.7.
COc1ccc(NC(=O)CCOc2ccc(C)cc2)cc1S(=O)(=O)N1CCOCC1 was read as Beta2AR agonist -5.8, ALR inh -2.9, LANA-H2B inh 1.7, E coli growth 0.683, FGF22 binding inactive, UCH37 inh 2.0 and HNF4A DNA FP 0.4.
`Cc1ccc2oc(=O)n(CC(=O)O)c2c1` gave Beta2AR agonist -2.4, ALR inh -0.3, LANA-H2B inh 1.2, E coli growth 0.744, FGF22 binding inactive, UCH37 inh 2.1 and HNF4A DNA FP 7.9.
`CCCCCNc1c(C(=O)OCC)c(=O)[nH]c2ccccc12` gave Beta2AR agonist -7.6, ALR inh -1.5, LANA-H2B inh -0.2, E coli growth 0.741, UCH37 inh -1.1 and HNF4A DNA FP 1.0.
For Cc1ccc(NCN2C(=O)C3CC=C(Cl)CC3C2=O)cc1 (stereo unspecified) the results were Beta2AR agonist -2.5, ALR inh -2.4, LANA-H2B inh 5.7, E coli growth 0.715, UCH37 inh 0.0 and HNF4A DNA FP -4.6.
For Cc1cc(N(CC(=O)NC(C)C)S(C)(=O)=O)ccc1Br the results were Beta2AR agonist -8.6, ALR inh -5.4, LANA-H2B inh -4.3, E coli growth 0.696, FGF22 binding inactive, UCH37 inh 2.6 and HNF4A DNA FP 1.0.
For O=C(N/N=C/c1ccccc1OCc1ccccc1)c1cccs1 the results were Beta2AR agonist -1.7, ALR inh -34.1, LANA-H2B inh 1.7 and HNF4A DNA FP -1.4.
`O=C(O)C1CCCCC1C(=O)NCc1ccccn1` (stereo unspecified) gave Beta2AR agonist 2.4, LANA-H2B inh 1.4, E coli growth 0.718, FGF22 binding inactive, UCH37 inh -1.0 and HNF4A DNA FP 0.0.
`CCN1C(=O)c2c(C)nc3ccccc3c2C1=O` gave Beta2AR agonist 2.7, ALR inh -8.7, LANA-H2B inh -1.1, E coli growth 0.638, FGF22 binding inactive, UCH37 inh 1.2 and HNF4A DNA FP 8.1.
`Cc1cc(C)n(-c2ccc(C(=O)OC(C)C)cc2)n1` gave Beta2AR agonist 0.0, ALR inh -2.5, LANA-H2B inh 3.9, E coli growth 0.636, FGF22 binding inactive, UCH37 inh 2.3 and HNF4A DNA FP 3.1.
For O=C(NCCc1ccccc1)c1ccccc1NC(=O)C1CCCCC1C(=O)O (stereo unspecified) the results were ALR inh 0.0, LANA-H2B inh -1.9, E coli growth 0.675, FGF22 binding inactive and UCH37 inh -2.0.
For CC(C)CCNC(=O)C(c1ccco1)N(CCCO)C(=O)Cn1nnc(-c2ccc(F)cc2)n1 (stereo unspecified) the results were Beta2AR agonist 8.1, ALR inh -20.4, LANA-H2B inh 0.5, E coli growth 0.713, FGF22 binding inactive, UCH37 inh 0.1 and HNF4A DNA FP 3.0.
COc1cccc(CN(C)C(=S)Nc2cccc(C)c2)c1 was read as Beta2AR agonist -0.4, ALR inh 5.1, LANA-H2B inh 0.8, E coli growth 0.641, FGF22 binding inactive, UCH37 inh -0.1 and HNF4A DNA FP 0.2.
COc1ccccc1NC(=O)c1cc(Cl)ccc1NC(=O)c1ccco1 was read as Beta2AR agonist -2.3, ALR inh -2.8, LANA-H2B inh -1.6, E coli growth 0.754, UCH37 inh -54.8 and HNF4A DNA FP -0.4.
For CC(C)(C)c1cc(NS(=O)(=O)c2cccs2)no1 the results were Beta2AR agonist -3.3, ALR inh -3.5, LANA-H2B inh -0.7, E coli growth 0.7, FGF22 binding inactive, UCH37 inh 0.1 and HNF4A DNA FP -2.0.
COc1ccc(NC(=O)c2ccc(NC(=O)C(C)C)cc2)c([N+](=O)[O-])c1 was read as Beta2AR agonist 6.8, ALR inh 0.5, LANA-H2B inh -10.8, E coli growth 0.734, FGF22 binding inactive, UCH37 inh 1.5 and HNF4A DNA FP 6.7.
Screening Cn1cnc([N+](=O)[O-])c1NCc1ccccc1 returned Beta2AR agonist 4.0, LANA-H2B inh -7.1, E coli growth 0.663, FGF22 binding inactive, UCH37 inh 9.4 and HNF4A DNA FP 1.6.
Screening O=c1cc(N2CCC3(CC2)OCCO3)[nH]c(=O)n1C1CCCCC1 returned Beta2AR agonist 1.6, ALR inh 1.1, LANA-H2B inh 5.0, E coli growth 0.72, UCH37 inh -4.9 and HNF4A DNA FP -0.7.
`CCOc1ccccc1NC(=O)CNC(=O)CNC(=O)Cc1ccccc1` gave Beta2AR agonist 4.5, ALR inh -0.4, LANA-H2B inh 1.2, E coli growth 0.639, FGF22 binding inactive, UCH37 inh 1.2 and HNF4A DNA FP -1.2.
`Fc1ccc(Nc2c(-c3ccco3)nc3ccccn23)cc1` gave Beta2AR agonist 3.8, E coli growth 0.645, UCH37 inh inactive and HNF4A DNA FP -0.5.
CC(=O)N1CCN(C(=O)c2cc(C)nc3ccccc23)CC1 was read as Beta2AR agonist 6.4, ALR inh -0.3, LANA-H2B inh 0.1, E coli growth 0.685, UCH37 inh 2.2 and HNF4A DNA FP -2.3.
CC(/C=C1\SC(=S)N(CCCC(=O)Nc2ccc(C(=O)O)cc2)C1=O)=C\c1ccccc1 was read as Beta2AR agonist 1.0, ALR inh 18.7, LANA-H2B inh 2.6, UCH37 inh 1.9 and HNF4A DNA FP 0.9.
Screening CCc1nnc(NC(=O)COc2ccc3c(c2)OCO3)s1 returned Beta2AR agonist 3.1, ALR inh -15.7, LANA-H2B inh 2.3, E coli growth 0.668, FGF22 binding inactive, UCH37 inh -1.0 and HNF4A DNA FP 1.4.
`CCOC(=O)CSc1nnc([C@H](CC(C)C)NC(=O)OC(C)(C)C)o1` gave Beta2AR agonist 2.7, E coli growth 0.786, UCH37 inh -0.7 and HNF4A DNA FP 1.0.
O=C(CSc1nnc(Cc2ccccc2)n1-c1ccc(F)cc1)N1CCOCC1 was read as Beta2AR agonist 2.7, ALR inh 2.3, LANA-H2B inh 12.5, E coli growth 0.647, FGF22 binding inactive, UCH37 inh 3.7 and HNF4A DNA FP 1.5.
CCOc1ccc(CNC(=O)CCCc2cn(C)c3ccccc23)cc1OC was read as Beta2AR agonist -1.8, LANA-H2B inh -4.9, E coli growth 0.722, FGF22 binding inactive, UCH37 inh 4.0 and HNF4A DNA FP 2.1.
For Nc1c(Cl)cc(C(=O)NC2CC2)cc1Cl the results were Beta2AR agonist -5.4, E coli growth 0.662, FGF22 binding inactive, UCH37 inh 2.9 and HNF4A DNA FP -5.1.
`COc1cc(/C=C(/C#N)c2ccc(F)cc2)ccc1Oc1ccc([N+](=O)[O-])cn1` gave Beta2AR agonist -9.7, ALR inh 1.5, LANA-H2B inh 2.8, E coli growth 0.745, FGF22 binding inactive, UCH37 inh 6.7 and HNF4A DNA FP 3.5.
Screening Cc1c(C#N)c2ccccc2n1CC(=O)O returned Beta2AR agonist -2.5, ALR inh -28.6, LANA-H2B inh 1.0, E coli growth 0.674, UCH37 inh 0.4 and HNF4A DNA FP 1.1.
Screening COc1ccc(NC2=NCCCCC2)cc1 returned Beta2AR agonist -3.2, ALR inh -3.5, LANA-H2B inh 8.5, E coli growth 0.629, FGF22 binding inactive, UCH37 inh 4.0 and HNF4A DNA FP 3.7.
Screening Cc1ccnc(N/N=C/c2ccco2)n1 returned Beta2AR agonist 1.8, ALR inh 0.0, LANA-H2B inh -2.5 and HNF4A DNA FP 1.3.
Screening O=C(COC(=O)CCNS(=O)(=O)c1cccs1)Nc1cc(C(F)(F)F)ccc1Cl returned Beta2AR agonist 8.8, LANA-H2B inh -3.3, E coli growth 0.677, FGF22 binding inactive, UCH37 inh 2.7 and HNF4A DNA FP -1.3.
O=C(O)c1ccc(NC(=O)c2cn(-c3ccccc3)nc2-c2ccc(F)cc2)cc1 was read as Beta2AR agonist -8.0, ALR inh 7.9, LANA-H2B inh 5.4, E coli growth 0.696, FGF22 binding inactive, UCH37 inh 3.9 and HNF4A DNA FP 0.1.
`CCCn1c(=S)[nH]c2cc(C(=O)N3CCCC(C(=O)OCC)C3)ccc2c1=O` (stereo unspecified) gave Beta2AR agonist 22.4, ALR inh 1.7, LANA-H2B inh -2.7, E coli growth 0.61, UCH37 inh 3.3 and HNF4A DNA FP -0.6.
`CCCC(O)(c1ccc(Cl)cc1)C(CN1CCOCC1)c1ccc(Cl)cc1` (stereo unspecified) gave Beta2AR agonist 15.6, ALR inh -1.3, LANA-H2B inh 4.0, E coli growth 0.691, FGF22 binding inactive, UCH37 inh 2.3 and HNF4A DNA FP -1.2.
`CCCN(CC(=O)Nc1ccc(F)c(F)c1F)C(=O)CN1C(=O)NC2(CCCCC2)C1=O` gave Beta2AR agonist 2.4, E coli growth 0.712, FGF22 binding inactive, UCH37 inh 1.0 and HNF4A DNA FP -3.3.
`COC(=O)c1cn(C(=O)c2ccccc2F)nc1N` gave Beta2AR agonist 4.4, ALR inh 6.2, LANA-H2B inh -0.9, E coli growth 0.708, FGF22 binding inactive, UCH37 inh 0.1 and HNF4A DNA FP 1.3.
CC1=CCC2C(=O)N(c3ccc(C)c(Br)c3)C(=O)C2C1 (stereo unspecified) was read as Beta2AR agonist 13.8, ALR inh -5.2, LANA-H2B inh 3.5, E coli growth 0.697, FGF22 binding inactive, UCH37 inh 2.8 and HNF4A DNA FP 1.6.
`CN(C)C(CNC(=O)CSc1nc2sc3c(c2c(=O)n1C)CCC3)c1ccccc1` (stereo unspecified) gave Beta2AR agonist -12.5, LANA-H2B inh 0.8, E coli growth 0.711, UCH37 inh 6.8 and HNF4A DNA FP -0.8.
`C/C(=N/Nc1ccc(C(=O)O)cc1)c1ccc(O)c(O)c1O` gave Beta2AR agonist 7.7, LANA-H2B inh -1.4 and HNF4A DNA FP -0.9.
For CS(=O)(=O)N(CC(=O)Nc1ccc2c(c1)OCO2)Cc1ccccc1 the results were Beta2AR agonist 6.6, ALR inh -9.5, LANA-H2B inh -0.6, E coli growth 0.692, UCH37 inh 2.8 and HNF4A DNA FP 3.1.
`CCc1nnc(NC(=O)CSc2nnc(Cc3cc(=O)[nH]c(=O)[nH]3)n2-c2ccc(OC)cc2)s1` gave Beta2AR agonist 17.8, ALR inh -4.7, LANA-H2B inh 0.2, E coli growth 0.769, FGF22 binding inactive, UCH37 inh 2.4 and HNF4A DNA FP -1.3.
Screening C/C(=C\c1ccccc1)CN1CCN(c2ccccc2F)CC1 returned Beta2AR agonist -3.2, ALR inh -6.4, LANA-H2B inh 0.6, E coli growth 0.652, UCH37 inh 2.2 and HNF4A DNA FP 6.2.
`CCNC(=O)c1ccccc1NC(=O)c1cccc(S(=O)(=O)N2CCOCC2)c1` gave Beta2AR agonist 0.9, ALR inh 2.5, LANA-H2B inh -4.0 and HNF4A DNA FP -1.9.

Not all compounds are listed; count on the stated rates, not on these rows.
